# Screening data (PubChem)
# ClpP mod: qHTS Assay for Activators of ClpP; purified B. subtilis ClpP, FRET peptide cleavage, 20 min; Potency, µM (titrated, usually from 57.5 µM), for inactives: at the top dose activity change, negative = active; AID 651965, 2013; 340,000 tested, 1.9% active; active = well fitted falling curve with a large enough effect; inconclusive = small, poorly fitted or top-dose-only effect; inactive = no such curve, though single readings can be large or run the other way; further: potency means the concentration at half of the fitted maximal effect; the source files actives as falling curves though it sought activators and does not explain the sign; nearly all actives have a fitted effect of over 65% in size; many hits overshoot -100%
# Target sequence (P80244 whole entry, looked up): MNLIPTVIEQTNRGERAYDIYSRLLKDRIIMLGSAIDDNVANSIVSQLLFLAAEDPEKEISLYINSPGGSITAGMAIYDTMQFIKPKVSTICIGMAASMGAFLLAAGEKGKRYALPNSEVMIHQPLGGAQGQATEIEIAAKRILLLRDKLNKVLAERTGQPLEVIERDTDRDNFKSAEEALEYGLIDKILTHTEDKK
#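 ClpP 10 microg/mL final, pH 8 Tris/KCl buffer with BSA, glycerol, Tween-20; compound pinned in; FRET-FV substrate; RT 20 min; Ex320/Em430; ΔFRET vs ADEP 5.8 microM, DMSO, no enzyme.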
# gsp antag: antagonizes gsp, the McCune-Albright syndrome mutation; 340,000 tested, 0.4% active; gsp-mutant cells, cAMP HTRF, 30 min; control for the full effect not named in the record; Potency, µM (titrated, usually from 76.9 µM), for the others: at the highest dose activity change, negative = inhibition, most hits filed as inhibitors; active = falling curve of any shape with a large fitted effect; inconclusive = falling curve, mostly with a smaller effect; inactive = flat or rising curve; cell line not stated here;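 further: intracellular cAMP measured with PDE inhibitor Ro 20-1724 present during compound exposure; potency means the concentration at half of the fitted maximal effect; on the % scale 0 is the no-effect control and ±100 the full control effect; nearly all actives have a fitted effect of over 65% in size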
#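 Cells in G418 medium, seeded 16-24 h, 37C; buffer exchange to DPBS + 1 mM CaCl2, 0.5 mM MgCl2, 0.05% BSA; cpds in DMSO + […] (300 uM stock), 30 min 37C; HTRF cAMP detection.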
# Sfp inh: Sfp phosphopantetheinyl transferase inhibition. Biochemical Sfp PPTase activity, qHTS. 310,000 tested, 3.5% active. AID 1490. Potency, µM, without a hit: max response, negative = inhibition, most hits filed as inhibitors. Q9F4F7; active means well fitted inhibition curve with a large enough effect; inconclusive means small, poorly fitted or top-dose-only effect, or another doubt; inactive means no such curve, though single readings can be large or run the other way;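 further: the enzyme is Sfp with the accession as filed and its product quenches rhodamine fluorescence; potency means the concentration at half of the fitted maximal effect; 0% = enzyme reaction without inhibitor and -100% = no enzyme wells; top concentration of the series not given in the record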
#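 After 15 min at room temperature with compound, 15 nM Sfp received 5 uM rhodamine-CoA plus 12.5 uM BHQ-2-ybbR (50 mM Hepes pH 7.6, 10 mM MgCl2). Rate came from the fluorescence difference over 30 min, ex 525/em 598 nm.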
# TRPV1 potentiator: human TRPV1 potentiation | Q8NER1 | AID 540277 | potentiation, % at 8.33 µM | TRPV1-expressing cells, Fluo-8 calcium influx, capsaicin EC20 potentiation; host cell line not named in the record; control for the full effect not named in the record | 320,000 tested, 0.02% active; active means potentiation above 80%; inconclusive means 30% to 80%; inactive means below 30%; further: 0% is about no effect
# Target sequence (Q8NER1 whole entry, looked up): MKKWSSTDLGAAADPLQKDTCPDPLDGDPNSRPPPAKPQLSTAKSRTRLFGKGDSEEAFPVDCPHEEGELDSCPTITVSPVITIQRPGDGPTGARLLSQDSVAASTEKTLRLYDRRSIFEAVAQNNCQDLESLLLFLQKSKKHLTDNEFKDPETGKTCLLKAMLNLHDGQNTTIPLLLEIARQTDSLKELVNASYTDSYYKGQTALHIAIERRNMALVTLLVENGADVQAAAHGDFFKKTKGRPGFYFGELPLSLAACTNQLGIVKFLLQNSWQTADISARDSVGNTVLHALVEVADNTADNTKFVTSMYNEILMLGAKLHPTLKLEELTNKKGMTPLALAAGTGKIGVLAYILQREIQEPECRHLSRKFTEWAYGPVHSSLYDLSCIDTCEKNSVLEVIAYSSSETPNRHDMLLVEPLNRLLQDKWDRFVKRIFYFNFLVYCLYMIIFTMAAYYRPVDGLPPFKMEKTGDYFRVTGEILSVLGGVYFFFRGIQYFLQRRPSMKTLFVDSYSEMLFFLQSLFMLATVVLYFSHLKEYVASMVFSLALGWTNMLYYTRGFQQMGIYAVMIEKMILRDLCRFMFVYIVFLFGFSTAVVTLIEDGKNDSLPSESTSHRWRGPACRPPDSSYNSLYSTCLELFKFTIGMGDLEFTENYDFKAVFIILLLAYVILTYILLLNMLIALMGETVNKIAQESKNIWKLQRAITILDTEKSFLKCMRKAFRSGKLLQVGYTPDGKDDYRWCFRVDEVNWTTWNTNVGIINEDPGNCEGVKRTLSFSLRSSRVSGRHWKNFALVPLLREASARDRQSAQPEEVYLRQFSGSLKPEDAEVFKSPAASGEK
#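 TRPV1-expressing cells were cultured overnight at 35.5C and loaded with Fluo-8 calcium dye for 40 to 90 min at room temperature. After a 10 s baseline, compound was added and calcium influx was read kinetically for 3 min (ex 480/em 520 nm).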
# gsp ag: gsp mutant agonism | Potency, µM (titrated, usually from 76.9 µM), for inactives: at the top dose activation (cAMP increase), usual class: activators | 340,000 tested, 0.13% active | gsp mutant cells, cAMP HTRF, 30 min; control for the full effect not named in the record | AID 624287; active = well fitted activation curve with a large enough effect; inconclusive = small, poorly fitted or top-dose-only effect, or another doubt; inactive = no such curve, though single readings can be large or run the other way; cell line not stated here;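 further: phosphodiesterase inhibitor Ro 20-1724 added with compounds to block cAMP breakdown; potency means the concentration at half of the fitted maximal effect; nearly all actives have a fitted effect of over 60% in size; about a fifth of the inactives were tested at one dose only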
#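 Cells stably selected in G418 were plated at 2000/well, grown 16-24 hr, then given compounds in DMSO with the PDE inhibitor […] (300 uM solution added) for 30 min at 37C; cAMP was read by HTRF.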
# Menin MLL FP FL: displaces fluorescein MLL peptide from human menin | Fluorescence polarization, fluorescein-MLL peptide displacement from menin | FP activity change, % at 61.4 µM | 290,000 tested, under 10 active | AID 1766; inconclusive = falling polarisation curve, or a change in total fluorescence; inactive = total fluorescence flat and polarisation flat or rising; no compound was filed as active; the % refers to the polarisation; negative = inhibition;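 further: % of control where 0% means no effect; inhibitors lower the polarisation; unlabelled MLL peptide was the positive control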
# CtBP-E1A blk: CtBP/E1A binding inhibition | 340,000 tested, 0.49% active | AlphaScreen GST-E1A/His-CtBP binding, 1536-well; hits give low values; control for the full effect not named in the record | activity change, % (concentration not given with the values); in the data active means activity change below about -65%; inconclusive means about -30% to -65%; inactive means above about -30%; further: on the % scale 0 is the no-effect control and ±100 the full control effect
#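 Steps: dispense buffer (Tris pH 8.0, NaCl 300 mM, TCEP 1 mM, BSA, Tween 20); add 5X protein mix (GST-E1A, His-CtBP, 125 nM each); pin 23 nL compound; 2 h at 37 °C, dark; add 5X beads (50 ug/mL); 1 h; read.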
# * marks the source's active call; other numbers are inactive results; u = inconclusive; x = no result given; & = joins results of further samples; [ ] = dose if it differs, or a comment.
compound	gsp antag	gsp ag	Menin MLL FP FL	CtBP-E1A blk	ClpP mod	TRPV1 potentiator	Sfp inh
NS(=O)(=O)c1ccc(CCNC(=O)CSCc2ccccc2)cc1	-1%	14%	6.9	x	-1.1%	-2	11%
Cc1cccc(OCC(=O)Nc2ccc3c4c(cccc24)CC3)c1C	8%	4%	-1.3	4	-4.1%	-1	-8%
Cc1ccc(C(=O)NCCSCc2ccc(Cl)cc2Cl)cc1[N+](=O)[O-]	-19%	-1%	0.0	-6	x	-7	-13%
O=C(c1ncn2c1c(=O)[nH]c1ccccc12)N1CCc2ccccc2C1	x	-20%	x	1	-21%	x	x
Cc1cc(NC(=O)COC(=O)c2cccc(OCc3ccccc3)c2)no1	4%	-53%[inhibitor]	0.8	1	-7.6%	3	9%
Cc1cc(N/N=C/c2cccc(Cl)c2)nc(-n2nc(C)cc2C)n1	-11%	-7%[15.4 µM]	2.9	-1	-1.5%	4	16%
O=C(Cn1cnc2c(nnn2Cc2ccc(F)cc2)c1=O)NC1CCCC1	14%	-9%	0.5	2	-2.2%	-7	8%
O=C(NCc1ccccn1)c1cccc(S(=O)(=O)Nc2ccc(F)cc2)c1	2%	u	x	6	-0.6%	u	x
CCN1CCCc2cc(CN(CCN3CCOCC3)C(=S)Nc3cccc(OC)c3)ccc21	-8%	14%	-4.2	-21	-2.1%	4	21%
COc1cccc(/C=C/C(=O)N2CCN(S(=O)(=O)c3ccccc3)CC2)c1OC	-20%	6%	0.9	3	-5.6%	-6	4%
CCOC(=O)C1CCCN(Cc2ccc(O)c(OC)c2)C1 (centres undefined)	3%	-3%	-0.2	3	0.5%	2	-17%
O=C(NCc1ccco1)C(=O)NCC1OCCN1S(=O)(=O)c1ccc(Br)cc1 (centres undefined)	7%	-14%	4.1	4	x	-13	-3%
COc1ccc(S(=O)(=O)NCc2ccco2)c2ccccc12	-1%	22%	-2.1	-7	-5.8%	0	-17%
O=C(NCCc1nc(-c2ccccc2)no1)c1ccccc1	2%	-53%[inhibitor]	x	x	-4.7%	x	x
O=C(C[C@H]1C[C@H](C(=O)N2CCCCC2)[C@@]2(CCc3ccccc3)c3[nH]c4ccc(Cl)cc4c3CCN2C1=O)NCCN1CCOCC1	4%	x	x	0	1.8%	x	x
COc1ccccc1CCNC(=O)C(=O)NCC1OCCN1S(=O)(=O)c1ccc(OC)c(OC)c1 (centres undefined)	-7%	-96%[inhibitor]	-2.2	-17	-3.8%	-29	0%
Nc1ccc(C(=O)OCc2nc3cc4ccccc4cc3[nH]2)cc1	-7%	8%	1.3	-1	x	14	9%
Cc1ccc(NC(=S)N(CCN2CCOCC2)Cc2ccccc2F)cc1	0%	-2%[15.4 µM]	-3.0	1	0.3%	-10	10%
CCOc1ccc(CCNC(=O)Cn2ncn3nc(-c4ccc(OC)cc4)cc3c2=O)cc1	6%	-51%[inhibitor]	0.1	-3	-4.8%	-4	10%
CC1CN(C(=O)CCNC(=O)c2ccc(Br)cc2)CC(C)O1 (centres undefined)	7%	32%[15.4 µM]	x	12	x	-1	x

# Part of the list above with just gsp ag and Sfp inh.
canonical_smiles,gsp ag,Sfp inh
Cc1cc(N/N=C/c2cccc(Cl)c2)nc(-n2nc(C)cc2C)n1,-7%[15.4 µM],16%
O=C(Cn1cnc2c(nnn2Cc2ccc(F)cc2)c1=O)NC1CCCC1,-9%,8%
O=C(NCc1ccccn1)c1cccc(S(=O)(=O)Nc2ccc(F)cc2)c1,u,x

# At a glance, 3 of the compounds above.
compound	gsp antag	gsp ag	Menin MLL FP FL	CtBP-E1A blk	ClpP mod	TRPV1 potentiator	Sfp inh
Cc1ccc(NC(=S)N(CCN2CCOCC2)Cc2ccccc2F)cc1	0%	-2%[15.4 µM]	-3.0	1	0.3%	-10	10%
CCOc1ccc(CCNC(=O)Cn2ncn3nc(-c4ccc(OC)cc4)cc3c2=O)cc1	6%	-51%[inhibitor]	0.1	-3	-4.8%	-4	10%
CC1CN(C(=O)CCNC(=O)c2ccc(Br)cc2)CC(C)O1 (centres undefined)	7%	32%[15.4 µM]	x	12	x	-1	x

# The list goes on.
compound	gsp antag	gsp ag	Menin MLL FP FL	CtBP-E1A blk	ClpP mod	TRPV1 potentiator	Sfp inh
O=C1c2ccc3c4c(ccc(c24)C(=O)N1c1cccc(O)c1)C(=O)N(c1cccc(O)c1)C3=O	5%	u	0.0	0	1.5%	3	7%
COc1ccc(/C=C2\CCc3ccccc3C2=O)c(OC)c1OC	-24%	3%[15.4 µM]	-1.8	u	x	-14	-3%
CN(C)C(CNC(=O)c1oc2ccccc2c1CSc1ncn[nH]1)c1ccco1 (centres undefined)	-14%	-2%[15.4 µM]	3.7	0	x	-8	-5%
O=C(Nc1cccnc1Cl)c1ccc(Cl)c([N+](=O)[O-])c1	18%	9%[15.4 µM]	0.2	1	-1.2%	11	u
CCOC(=O)c1ccc(COC(=O)CCc2nc(-c3ccccc3)c(-c3ccccc3)o2)cc1	-21%	u	0.3	22	28µM*	8	u
OC(c1ccc(Cl)cc1Cl)C(Cc1cccnc1)n1cncn1 (centres undefined)	-8%	-22%	0.0	4	-0.3%	-1	4%
COc1ccccc1-c1cc2nc(-c3ccccc3)cc(N3CCN(C(=O)c4ccoc4)CC3)n2n1	x	u	x	1	4.2%	x	x
CC1CCCCN1N=Nc1nc2c([nH]1)c(=O)n(C)c(=O)n2C (centres undefined)	4%	u	x	-11	x	x	x
Cn1c(=NC(=O)C2CCN(S(=O)(=O)c3cccs3)CC2)sc2ccccc21	2%&6%	7%&-5%	-0.6	4&4	-20%	11	11%
COc1c(NC(C)=O)c2ccccc2c2ccccc12	-2%	-5%[15.4 µM]	2.9	-1	x	-5	6%
CC1(C)CC(=O)C(C=NCCN2CCNC2=O)=C(O)C1	1%	-26%	-1.4	2	-1.1%	-1	32%[activator]
O=C1COc2ccc(C(=O)COC(=O)COc3ccccc3[N+](=O)[O-])cc2N1	-6%	0%[15.4 µM]	5.2	11	x	-14	-18%
CCC1CCC/C1=N\NC(=O)c1ccoc1C (centres undefined)	20%	-18%	x	3	-0.4%	-11	-5%
CC1CCN(CC(=O)NNC(=O)c2cccc(Br)c2)CC1	14%	-1%	x	8	x	0	4%
CCOC(=O)c1c(NC(=O)C2CCCN(S(=O)(=O)c3ccc(C)cc3)C2)sc2c1CCCC2 (centres undefined)	-11%	-4%	1.9	4	u	6	-10%
Cc1ccccc1NC(=O)CCC(=O)OCCCC(F)(F)C(F)(F)F	10%	-44%[inhibitor]	1.9	7	0.6%	-8	1%
CC(C)(C)NC(=O)/C=N/O	25%	0%	-0.2	0	0.7%	-1	0%
C=CCn1c(N)cc(=O)nc1SCC(=O)Nc1ccccc1C(N)=O	8%	17%[15.4 µM]	-1.2	-2	0.1%	4	-12%
Cc1ccccc1NC(=O)COC(=O)c1ccc2nc(C)c(C)nc2c1	0%	-4%	x	6	0.5%	u	x
CC(=O)Nc1sc(N/N=C/c2ccccc2)nc1-c1ccc(C)cc1	-6%	1%[15.4 µM]	4.3	-4	-0.1%	3	-4%
O=C(NNC1=NCCCCC1)Nc1cccc(Cl)c1	8%	-29%	1.6	6	x	-5	5%
CC(C)CN(CC(C)C)S(=O)(=O)N1CCC(C(=O)NCc2ccccn2)CC1	-1%	0%	0.8	6	0.2%	-14	13%
COc1cccc(NC(=O)CSc2nc(N)cc(N)n2)c1	0%	-5%	0.5	-11	0.1%	8	8%
CC(=O)Nc1ccc(NC(=O)c2cc(-c3cc(C)c(C)cc3O)n[nH]2)cc1	7%	10%[15.4 µM]	3.5	u	-2.2%	27	13%
CCOC(=O)C1=C(C)NC(C)=C(C(=O)OCC)C1C(=O)OCC(=O)N(C)C1CCS(=O)(=O)C1 (centres undefined)	-20%	12%[15.4 µM]	-6.0	21	x	0	26%
Cc1cccc(C(=O)NNC(=O)c2ccccc2[N+](=O)[O-])c1	-7%	8%	-4.1	x	-2.1%	12	0%
CN1Cc2cc(C(=O)c3cc(Cl)cc(CSc4ncccn4)c3O)cnc2NC1=O	x	x	u	x	x	9	2%
C/C(=N\OCC(=O)Nc1ccc2c(c1)OCCO2)c1ccc2c(c1)OCCO2	-5%	-25%	3.1	-10	-2.3%	-2	5%
O=S(=O)(c1ccc(F)cc1)N1CCCNCC1	13%	1%	-1.7	3	-0.4%	4	6%
CCOC(=O)n1c(=O)n(Cc2cccc(F)c2)c2ccccc21	9%	5%[15.4 µM]	-1.4	-2	x	-13	-13%
CCOC(=O)c1c(C)nc2c(c1-c1ccc(OC)c(OC)c1)C(=O)c1ccccc1-2	2%	-1%	9.4	-14	-2.4%	1	6%
CCOC(=O)C1(Cc2cccc(Cl)c2)CCCN(C(=O)c2c(CC)noc2C)C1 (centres undefined)	-14%	-4%	-0.5	x	-1.7%	3	18%
Cc1csc2c(SCC(=O)NNS(=O)(=O)c3cccc(C(F)(F)F)c3)ncnc12	-6%	6%	5.9	x	-1.7%	16	0%
CCCn1c2ccccc2c2cnn(CC(=O)NC3CCCCC3C)c(=O)c21 (centres undefined)	2%	-2%	x	x	-3.5%	u	11%
CN(C(=O)CN1C(=O)S/C(=C\c2cccc(Cl)c2)C1=O)C1CCS(=O)(=O)C1 (centres undefined)	-4%	20%	x	x	-2.9%	13	0%
O=[N+]([O-])c1ccc(CSc2nnc(Cc3ccccc3)n2-c2ccc(F)cc2)cc1	-17%	-4%	-0.9	6	1.7%	-7	15%
Cn1cnc([N+](=O)[O-])c1S(=O)(=O)Oc1ccc(Cl)cc1	-5%	5%	x	-6	x	x	x
CCCS(=O)(=O)N1CCN(S(=O)(=O)c2ccccc2)CC1	7%	12%	3.6	-10	-2.2%	u	20%
Cc1ccc(OCCn2c(=O)n(C)c3ccccc32)cc1	3%	14%	0.2	9	x	9	9%

# Rows were taken by chance; overall some 5.3% were active at least once.
